Screening data as filed in PubChem.
TRPML1 blocker: blocks the human TRPML1 channel; Q9GZU1; activity change, negative = inhibition, % (no concentration beside the values); TRPML1-inducible cells, Ca2+ dye fluorescence, FDSS; stronger effect = lower value; inhibition of EC80 agonist-evoked calcium signal; 390,000 compounds, 0.02% hits; in the data active means activity change below about -50%; inconclusive means about -30% to -50%; inactive means above about -30%;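 also: stimulus is agonist 54-4 at its EC80 concentration; % is scaled to controls: 0 for no effect and ±100 for the full control effect; compound concentration not given in the record; the text of the record puts the active cut at -80%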
Target sequence (Q9GZU1 whole entry, looked up): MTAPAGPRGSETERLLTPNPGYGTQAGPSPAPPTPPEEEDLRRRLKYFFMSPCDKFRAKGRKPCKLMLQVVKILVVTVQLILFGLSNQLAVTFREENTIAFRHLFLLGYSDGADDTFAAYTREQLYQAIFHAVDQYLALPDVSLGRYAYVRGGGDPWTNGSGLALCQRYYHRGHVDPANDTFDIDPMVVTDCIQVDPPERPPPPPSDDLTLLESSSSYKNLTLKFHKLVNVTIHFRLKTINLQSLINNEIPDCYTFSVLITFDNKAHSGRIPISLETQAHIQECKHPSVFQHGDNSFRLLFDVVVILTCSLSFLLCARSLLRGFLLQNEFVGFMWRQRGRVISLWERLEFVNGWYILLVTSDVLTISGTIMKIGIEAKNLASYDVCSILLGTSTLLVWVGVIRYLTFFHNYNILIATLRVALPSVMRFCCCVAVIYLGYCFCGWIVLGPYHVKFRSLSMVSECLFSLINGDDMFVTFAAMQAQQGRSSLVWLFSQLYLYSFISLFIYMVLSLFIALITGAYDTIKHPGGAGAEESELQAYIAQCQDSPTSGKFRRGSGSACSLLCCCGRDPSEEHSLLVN
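Tet-induced TRPML1-DL cells loaded with Ca8 no-wash calcium dye were read kinetically on FDSS. Compound addition was followed by EC80 agonist 54-4 (4 uM final); inhibition was read over 110 s.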
ClpP mod: qHTS Assay for Activators of ClpP; Potency, µM (top dose mostly 57.5 µM), for the others: at the highest dose activity change, negative = active; 340,000 compounds, 1.9% hits; purified B. subtilis ClpP, FRET peptide cleavage, 20 min; ATP-dependent Clp protease proteolytic subunit (Bacillus subtilis (strain 168)), P80244; active = well fitted falling curve with a large enough effect; inconclusive = small, poorly fitted or top-dose-only effect; inactive = no such curve, though single readings can be large or run the other way; also: potency is read from the fitted curve at half-maximal effect; the source files actives as falling curves though it sought activators and does not explain the sign; nearly all actives have a fitted effect of over 65% in size; many hits overshoot -100%
Target sequence (P80244 whole entry, looked up): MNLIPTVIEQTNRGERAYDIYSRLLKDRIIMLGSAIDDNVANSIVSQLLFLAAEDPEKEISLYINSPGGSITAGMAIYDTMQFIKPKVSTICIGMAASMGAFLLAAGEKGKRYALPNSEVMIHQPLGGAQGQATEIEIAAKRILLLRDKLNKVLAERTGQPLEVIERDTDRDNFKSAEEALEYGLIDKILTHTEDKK
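ClpP 10 microg/mL final, pH 8 Tris/KCl buffer with BSA, glycerol, Tween-20; compound pinned in; FRET-FV substrate; RT 20 min; Ex320/Em430; ΔFRET vs ADEP 5.8 microM, DMSO, no enzyme.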
TRPML1 agonist: activates the human TRPML1 channel. activation, % (test concentration not listed). TRPML1-expressing cells, Ca2+ dye fluorescence, FDSS; host cell line not named in the record; reference of the full effect not given here. Q9GZU1. 410,000 compounds, 0.12% hits; in the data active = activation above about 50%; inconclusive = about 30% to 50%; inactive = below about 30%; also: 0% is about no effect; the text of the record puts the active cut at 80%
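Tetracycline-induced TRPML1-DL cells are seeded and incubated overnight before loading with a no-wash Ca2+ dye and quencher. Agonist activity is taken from the 110 s fluorescence read following compound pin-transfer on an FDSS, before EC80 54-4 challenge.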
gsp agonist: activates gsp, the McCune-Albright syndrome mutation | gsp mutant cells, cAMP HTRF, 30 min; control for the full effect not named in the record | Potency, µM (highest dose often 76.9 µM), inactives show at the top dose activation (cAMP increase), actives largely listed as activators | 340,000 compounds, 0.13% hits; active = well fitted activation curve with a large enough effect; inconclusive = small, poorly fitted or top-dose-only effect, or another doubt; inactive = no such curve, though single readings can be large or run the other way; cell line not stated here;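 also: phosphodiesterase inhibitor Ro 20-1724 added with compounds to block cAMP breakdown; potency is read from the fitted curve at half-maximal effect; nearly all actives have a fitted effect of over 60% in size; about a fifth of the inactives were tested at one dose only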
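Cells in DMEM/10% FBS with G418 were pretreated with compounds in DMSO plus […] (300 uM stock) for 30 min at 37C. cAMP was measured by HTRF (cAMP-d2 plus anti-cAMP antibody-K) after 30 min at room temperature.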
gsp antag: antagonizes gsp, the McCune-Albright syndrome mutation. Potency, µM (highest dose often 76.9 µM), for inactives: at the highest dose activity change, negative = inhibition, actives largely listed as inhibitors. gsp-mutant cells, cAMP HTRF, 30 min; control for the full effect not named in the record. AID 624288. 340,000 compounds, 0.4% hits; active = falling curve of any shape with a large fitted effect; inconclusive = falling curve, mostly with a smaller effect; inactive = flat or rising curve; cell line not stated here;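 also: intracellular cAMP measured with PDE inhibitor Ro 20-1724 present during compound exposure; potency is read from the fitted curve at half-maximal effect; % is scaled to controls: 0 for no effect and ±100 for the full control effect; nearly all actives have a fitted effect of over 65% in size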
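Measurement of cellular cAMP by homogeneous time-resolved fluorescence following a 30 min compound exposure at 37C. The PDE inhibitor […] was present throughout; the assay buffer was DPBS with 0.05% BSA and 0.005% Tween 20.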
Menin-MLL FL inh: menin-MLL binding inhibition, fluorescein peptide; Fluorescence polarization, fluorescein-MLL peptide displacement from menin; FP activity change, % at 61.4 µM; 290,000 tested, under 10 active; inconclusive = falling polarisation curve, or a change in total fluorescence; inactive = total fluorescence flat and polarisation flat or rising; no compound was filed as active; the % refers to the polarisation; negative = inhibition;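 also: % of control where 0% means no effect; inhibitors lower the polarisation; unlabelled MLL peptide was the positive control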
Numbers without * were called inactive; ? = inconclusive; · = no result given; [ ] = another dose, or the depositor's remark.

Results follow in this order: ClpP mod	Menin-MLL FL inh	TRPML1 agonist	gsp antag	TRPML1 blocker	gsp agonist
COc1ccc(C2Nc3ccccc3C(=O)N2c2ccc(C)cc2)cc1Cn1cc([N+](=O)[O-])cn1 (centres undefined)
 : -9.5%	1.8	2.0	-13.3%	28.1	-7.5%
O=C(O)c1ccccc1NS(=O)(=O)c1ccc2c3c(cccc13)C(=O)N2
 : -3.0%	-2.7	0.5	-14.5%	11.6	-2.0%
CCCCn1c(NCCN(C)C)nc2c1c(=O)[nH]c(=O)n2C
 : -1.6%	1.6	1.4	6.7%	5.5	13.7%
COc1ccccc1N1CCN(CC(=O)Nc2cc(C)nn2-c2nc(C)cc(C)n2)CC1
 : 0.2%	·	0.9	-12.7%	33.8	28.0%
O=C(NC(C(=O)c1ccccc1)N1CCOCC1)c1ccccc1 (centres undefined)
 : 0.0%	0.9	0.6	5.4%	8.4	0.3%
CN(C)CCCNC(=O)C(=O)Nc1ccc2c(c1)N(S(=O)(=O)c1cccs1)CCC2
 : 1.1%	·	0.4	1.1%	-4.7	-6.5%
Cc1ccc(C)c(NC(=O)C(=O)NCc2ccccn2)c1
 : ·	2.9	0.5	16.5%	-11.2	2.1%[15.4 µM]
CC(C)Cc1nnc(NC(=O)C2CCCC2)s1
 : ·	-2.2	0.0	-3.7%	5.0	0.2%[15.4 µM]
C=CCNC(=S)N(CC=C)C1CCS(=O)(=O)C1 (centres undefined)
 : -23.2%	-0.6	-0.1	10.6%	19.5	-4.8%
O=C(/C=C/c1ccccc1)N(Cc1cccs1)C1CCS(=O)(=O)C1 (centres undefined)
 : ·	0.1	-0.1	-5.7%	-4.0	14.2%[15.4 µM]
Cc1cc(C(=O)COC(=O)c2ccc(Cl)c(S(N)(=O)=O)c2)c(C)n1C1CC1
 : 1.8%	·	0.2	-12.6%	-17.5	-6.9%
CC[C@H](C)[C@H](NC(N)=O)C(=O)Nc1ccc(S(=O)(=O)NC(C)C)cc1
 : 0.2%	0.4	2.2	-0.4%	-5.0	0.0%
Cc1csc2nc(O)c(C(=O)NCCCc3ccccc3)c(=O)n12
 : -1.4%	·	0.4	-3.7%	-3.4	-3.6%[15.4 µM]
Cc1cccc(NC(=O)CSC2=NN3CCCC(=O)N=C3S2)c1C
 : 0.9%	3.8	-0.9	1.6%	3.7	?
Cc1cc(C)c(OCC(=O)Nc2cc(C(=O)O)cc(C(=O)O)c2)cc1C
 : -1.1%	-1.2	4.1	2.8%	-5.2	2.2%
O=C(Nc1ccccc1)C1=C[C@H](c2csc3ccccc23)C[C@H](OCCCCO)O1
 : -2.8%	12.2	-0.6	-14.2%	-0.9	4.6%
CCc1ccc(NC(=O)CCc2nnc3ccc(N4CCCC4)nn23)cc1
 : 0.9%	·	3.9	-1.2%	11.6	18.3%
OC1(c2ccccc2)CNCCc2ccccc21 (centres undefined)
 : 1.4%	1.0	-0.5	19.0%	-19.8	1.2%
CCC(C)NC(=O)C1CN(S(=O)(=O)c2ccccc2)CCN1S(=O)(=O)c1ccccc1 (centres undefined)
 : 0.0%	1.8	-1.0	-10.1%	-10.4	-9.6%
COc1cc2c(cc1NC(=O)COC(=O)[C@@H](NC(=O)c1ccccc1)C(C)C)oc1ccccc12
 : ?	1.6	0.9	?	47.8	24.8%
O=C(Nc1cccc2ncccc12)c1ccc(OCc2ccccc2)cc1
 : -3.0%	1.0	0.4	-7.9%	8.8	-29.9%
O=C(NCc1ccccc1)NC1CCS(=O)(=O)C1 (centres undefined)
 : ·	0.5	-0.2	9.8%	-9.7	-46.2%[inhibitor]
COc1ccccc1-n1c(CNc2ccc(F)cc2)nnc1SCC(=O)Nc1cc(C)on1
 : -1.1%	-0.8	-1.2	-3.3%	-0.8	12.9%
COc1ccc(Nc2nnc(C)c3ccccc23)cc1
 : 0.2%	0.4	·	-13.5%	·	?
Cc1cccc(NS(=O)(=O)c2cc(C(=O)NCCC3=CCCCC3)ccc2Cl)c1
 : 0.2%	-4.8	2.4	?	12.0	-19.4%
COc1ccc(NC(=O)CN(Cc2ccccc2)Cc2ccccc2)cc1S(N)(=O)=O
 : -0.8%	1.1	1.0	-15.1%	-6.2	2.6%
CSC1=NCCN1C(=O)C(C)(C)Oc1ccc(Cl)cc1
 : -2.9%	·	0.9	3.0%	22.5	3.3%
CSc1ccccc1NC(=O)CN(C)CC(=O)Nc1ccc(Cl)cc1F
 : -1.3%	2.4	-0.7	-9.0%	3.7	-47.0%[inhibitor]
O=C(Nc1ccc(S(=O)(=O)NC2=NCCCCC2)cc1)c1ccc2ccccc2n1
 : -3.6%	-1.2	2.7	-15.3%	0.1	-9.2%[15.4 µM]
CN(CC(=O)Nc1ccccc1C(F)(F)F)C(=O)c1ccc(-c2ccc(Cl)cc2)o1
 : -2.3%	·	2.3	-17.0%	20.7	8.9%[15.4 µM]
CCOc1ccc(NC(=O)CSc2cn(CC(=O)N3CCOCC3)c3ccccc23)cc1
 : 1.4%	·	-0.1	·	5.1	·
O=C(CSC1=NCCS1)Nc1nc(-c2ccccc2)cs1
 : 1.8%	3.4	3.0	-0.8%	16.2	-0.9%[15.4 µM]
Oc1ccc(/C=N/Nc2nc(-c3ccc(Cl)cc3)cc(C(F)(F)F)n2)cc1
 : -5.7%	5.3	3.7	?	-7.6	23.2%
Cc1cccc(C2C3=C(CCCC3=O)N=C3c4ccccc4C(=O)C32)c1 (centres undefined)
 : -2.4%	2.8	2.1	-5.9%	1.1	0.6%
Cc1ccn(CC(=O)NC2CCCN(Cc3ccccc3F)C2)n1 (centres undefined)
 : 1.8%	·	-0.1	·	-8.7	-24.0%
COc1ccc(NC(=O)CSc2nnc(CNC(=O)c3cccs3)o2)c(OC)c1
 : -0.9%	-6.1	0.5	7.9%	-14.7	2.6%
COc1ccccc1NC(=O)CCc1nc2sc3c(c2c(=O)[nH]1)CCCC3
 : ·	·	-0.3	-0.8%	12.0	6.2%[15.4 µM]
CCc1nnc(NC(=O)CSc2nc3c([nH]c4ccccc43)c(=O)n2-c2ccc(Cl)cc2)s1
 : -19.6%	·	1.4	·	20.2	·
COc1cc(Cl)c(NS(=O)(=O)c2ccc(-c3coc(C)n3)cc2)c(OC)c1
 : -0.5%	·	-0.2	·	-9.7	·
Cc1ccc(-c2n[nH]c(=O)c3ccccc23)cc1S(=O)(=O)N(C)CCO
 : -1.9%	4.2	-1.1	6.5%	6.5	-0.4%
C/C(NCCCn1ccnc1)=C(\C#N)C(N)=O
 : 1.1%	-1.2	-0.3	8.0%	18.8	-5.9%
Cc1ccc(S(=O)(=O)Nc2ccc3c(c2)OCCO3)cc1C
 : ·	-2.7	1.0	-14.5%	-1.3	-7.9%[15.4 µM]
Cc1nnc(NC(=O)CSc2nc3ccccc3[nH]2)s1
 : 0.8%	-1.0	0.0	-8.3%	-5.5	-23.2%
CC(=O)Nc1ccc(NC(=O)CCc2c(C)nc3c(c(C)nn3-c3ccc(C)cc3)c2C)cc1
 : 4.2%	·	-0.2	·	-9.4	·
CCN1CCN(C(=O)Cn2cnc3sc(C)c(S(=O)(=O)N4CCN(c5ncccn5)CC4)c3c2=O)CC1
 : ·	-4.1	-0.1	3.1%	4.7	-54.3%[inhibitor]
Cc1cc(=O)n(C(C)Cc2ccccc2)n1C(C)Cc1ccccc1 (centres undefined)
 : 31.6µM*	·	0.4	-7.1%	1.1	8.3%
COc1ccc(COC(=O)CCc2c[nH]c3ccccc23)cc1F
 : 0.3%	·	-0.7	2.7%	28.0	2.0%
O=c1o[nH]c(-c2ccccc2)c1C1=NCCCCC1
 : 0.9%	-2.1	-0.3	3.6%	47.3	0.0%
COc1ccc(S(=O)(=O)N(CC(=O)N(C)Cc2ccccc2)c2ccc(Cl)cc2)cc1
 : -0.9%	·	-0.3	·	-15.1	·
Cc1nnc(NC(=O)CSc2ccc(-c3cccnc3)nn2)s1
 : ·	-2.8	-1.0	4.8%	-9.5	14.6%[15.4 µM]
Cc1ccc(NC(=O)CSc2nnc(-c3ccco3)o2)cc1
 : ·	0.0	0.0	-30.7%	3.7	-4.6%[15.4 µM]
Cc1ccc(CCN2C(Nc3ccccc3)=NC[C@@H]2C)cc1
 : -1.0%	·	3.1	15.3%	-16.6	-2.6%
CCN(CC)S(=O)(=O)c1cccc(-c2nnc(SCCCC(=O)c3ccc(F)cc3)o2)c1
 : 1.8%	3.3	1.6	-13.3%	21.2	-5.3%
O=C(C1CCCN(S(=O)(=O)c2ccc(Cl)cc2)C1)N(Cc1cccs1)C1CC1 (centres undefined)
 : -2.4%	0.3	1.0	?	67.5	-3.9%
Cc1cccc(NC(=O)CN(C)CC(=O)NC(c2ccccc2)c2ccccc2)c1C
 : -0.4%	·	3.3	1.2%	-8.5	1.7%
Cc1cccc(OCC(=O)NC2CC(C)(C)NC(C)(C)C2)c1
 : ·	1.5	0.3	0.9%	10.7	-0.2%
Cc1ccc(NC(=O)Cn2c(=O)n(Cc3ccco3)c(=O)c3sc4ccccc4c32)c(C)c1
 : -9.1%	·	-0.5	·	4.4	·
CCN(C(=O)CN1CCN(c2ccccc2O)CC1)c1c(N)n(Cc2ccccc2)c(=O)[nH]c1=O
 : 2.4%	-0.3	0.2	0.7%	6.7	-2.2%
COc1ccc(C(=O)NC2CC3CCCC(C2)N3Cc2ccccc2)cc1 (centres undefined)
 : ·	-5.7	-0.6	13.6%	-7.3	-4.6%
Cc1cc(NC(=O)C2CC(c3c(F)cccc3Cl)=NO2)n(-c2ccccc2)n1 (centres undefined)
 : 0.5%	0.2	0.8	6.8%	-2.7	-55.6%[inhibitor]

Continued:
Results follow in this order: ClpP mod	Menin-MLL FL inh	TRPML1 agonist	gsp antag	TRPML1 blocker	gsp agonist
CSc1ccc(CN2CCc3c([nH]c4ccccc34)C2)cc1
 : -23.7%	9.1	1.1	9.4%	41.1	6.6%[15.4 µM]
O=C(NC1CCCC1)C(c1ccncc1)N(C(=O)c1csnn1)c1ccc(Cl)cc1 (centres undefined)
 : -0.1%	0.6	-1.1	-23.7%	-8.7	18.0%[15.4 µM]
CCc1nccn1CCC(=O)NC1CC(C)(C)Cc2c1cnn2-c1ccc(C)cc1 (centres undefined)
 : 0.8%	·	0.2	-7.4%	1.4	-4.4%
Cc1ccccc1C(=O)NC1CC2CCC(C1)N2Cc1ccccc1 (centres undefined)
 : ·	-1.5	0.4	5.1%	0.2	8.6%[15.4 µM]
O=C(CCc1ccccc1Cl)Nc1ccc(S(=O)(=O)Nc2nccs2)cc1
 : -2.7%	·	0.4	-8.7%	15.4	2.9%[15.4 µM]
